Six1-Eya2 blk = Six1/Eya2 interaction inhibition | Q15475+O00167 | AlphaScreen GST-Six1/His-Eya2 binding, biochemical; hits give low values; control for the full effect not named in the record | activity change, % (concentration not given with the values) | 360,000 tested, 0.56% active | AID 651725; in the data active = activity change below about -65%; inconclusive = about -30% to -65%; inactive = above about -30%; further: on the % scale 0 is the no-effect control and ±100 the full control effect
Target sequence (O00167 whole entry, looked up): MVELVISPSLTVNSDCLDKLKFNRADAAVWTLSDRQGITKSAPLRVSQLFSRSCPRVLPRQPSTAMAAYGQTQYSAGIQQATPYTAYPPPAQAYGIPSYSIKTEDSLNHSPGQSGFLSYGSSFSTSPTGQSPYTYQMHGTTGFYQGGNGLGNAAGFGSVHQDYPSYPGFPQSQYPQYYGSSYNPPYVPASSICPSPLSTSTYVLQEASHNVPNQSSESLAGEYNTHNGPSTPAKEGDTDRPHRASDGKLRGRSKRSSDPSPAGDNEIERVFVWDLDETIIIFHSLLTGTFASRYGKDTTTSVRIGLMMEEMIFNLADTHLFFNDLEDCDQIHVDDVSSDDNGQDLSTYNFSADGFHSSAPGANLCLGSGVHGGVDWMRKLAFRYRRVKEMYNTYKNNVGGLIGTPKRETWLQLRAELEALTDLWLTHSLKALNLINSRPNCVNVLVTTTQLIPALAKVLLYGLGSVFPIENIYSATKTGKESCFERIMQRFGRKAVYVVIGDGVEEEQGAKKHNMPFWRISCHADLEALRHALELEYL
Target sequence (Q15475 whole entry, looked up): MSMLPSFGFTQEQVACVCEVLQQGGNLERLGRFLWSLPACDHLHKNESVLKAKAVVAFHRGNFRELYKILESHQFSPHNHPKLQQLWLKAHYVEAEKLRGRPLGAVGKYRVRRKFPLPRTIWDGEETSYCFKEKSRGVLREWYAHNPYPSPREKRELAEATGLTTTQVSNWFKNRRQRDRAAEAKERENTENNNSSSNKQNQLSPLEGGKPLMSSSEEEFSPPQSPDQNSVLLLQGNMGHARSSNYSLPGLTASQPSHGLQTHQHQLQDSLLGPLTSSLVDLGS
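Compounds are tested against tagged Six1 and Eya2 proteins bridged by glutathione donor and nickel acceptor beads; after a one-hour incubation at 37 °C without light, AlphaScreen emission is recorded.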
D2 agonist = activates the human D2 dopamine receptor; P14416; DiscoveRx PathHunter D2 beta-arrestin, luminescence, 90 min; 100% = 57 uM dopamine signal; activation, % (concentration not given with the values); 360,000 tested, 0.084% active; in the data active = activation above about 40%; inconclusive = about 15% to 40%; inactive = below about 15%; further: compound concentration not given in the record; the text of the record calls up to 30% inactive
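Agonist mode: compounds alone added to overnight-plated D2 PathHunter cells for 90 min at 37 C, with 57 uM final dopamine (EC100) defining full response. Beta-arrestin recruitment detected by chemiluminescent reagent, read after 1 h at ambient temperature.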
D2 potentiator = potentiates the human D2 dopamine receptor allosterically | 360,000 tested, 0.23% active | DiscoveRx D2 beta-arrestin cells, luminescence, 90 min; 100% = 57 uM dopamine signal | potentiation, % (no concentration beside the values); active = potentiation of 50% or more; inconclusive = 30% to 50%; inactive = 30% or less;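 further: compound concentration not given in the record; tested on top of an EC20 dose of dopamine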
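PathHunter beta-arrestin assay in DiscoveRx D2 cells. Compounds were added with an EC20 of dopamine (50 nM final) for 90 min at 37 deg C. Luminescence was read 1 h after detection reagent, with 57 uM dopamine as the EC100 control.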
gsp antagonist = antagonists of gsp mutant (McCune-Albright syndrome); gsp-mutant cells, cAMP HTRF, 30 min; control for the full effect not named in the record; Potency, µM (doses to about 76.9 µM), without a hit: at the top dose activity change, negative = inhibition, actives largely listed as inhibitors; 340,000 tested, 0.4% active; AID 624288; active = falling curve of any shape with a large fitted effect; inconclusive = falling curve, mostly with a smaller effect; inactive = flat or rising curve; cell line not stated here;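 further: intracellular cAMP measured with PDE inhibitor Ro 20-1724 present during compound exposure; potency means the concentration at half of the fitted maximal effect; on the % scale 0 is the no-effect control and ±100 the full control effect; nearly all actives have a fitted effect of over 65% in size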
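G418-selected cells were plated in DMEM/10% FBS for 16-24 h at 37C, then treated with compounds plus the PDE inhibitor […] (300 uM solution added) for 30 min at 37C. Intracellular cAMP was measured by HTRF after 30 min lysis at room temperature.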
gsp agonist = agonists of gsp mutant (McCune-Albright syndrome). gsp mutant cells, cAMP HTRF, 30 min; control for the full effect not named in the record. Potency, µM (top dose mostly 76.9 µM), inactives show top-dose activation (cAMP increase), most hits filed as activators. 340,000 tested, 0.13% active. AID 624287; active = well fitted activation curve with a large enough effect; inconclusive = small, poorly fitted or top-dose-only effect, or another doubt; inactive = no such curve, though single readings can be large or run the other way; cell line not stated here;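 further: phosphodiesterase inhibitor Ro 20-1724 added with compounds to block cAMP breakdown; potency means the concentration at half of the fitted maximal effect; nearly all actives have a fitted effect of over 60% in size; about a fifth of the inactives were tested at one dose only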
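Cells stably selected in G418 were plated at 2000/well, grown 16-24 hr, then given compounds in DMSO with the PDE inhibitor […] (300 uM solution added) for 30 min at 37C; cAMP was read by HTRF.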
CtBP-E1A blk = inhibitors of CtBP/E1A interaction; AlphaScreen GST-E1A/His-CtBP binding, 1536-well; hits give low values; control for the full effect not named in the record; activity change, % (concentration not given with the values); 340,000 tested, 0.49% active; in the data active means activity change below about -65%; inconclusive means about -30% to -65%; inactive means above about -30%; further: on the % scale 0 is the no-effect control and ±100 the full control effect
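AlphaScreen with 125 nM GST-E1A and 125 nM His-CtBP (5X stocks) in Tris pH 8.0, 300 mM NaCl, BSA, Tween 20, TCEP. Compounds preincubated 2 h at 37 deg C, then glutathione donor/nickel acceptor beads added for 1 h at 37 deg C in dark.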
The depositor's hits bear a star; ? = inconclusive; . = not tested or not shown; [ ] = dose if it differs, or a comment.

Structure,CtBP-E1A blk,gsp agonist,Six1-Eya2 blk,gsp antagonist,D2 agonist,D2 potentiator
Cc1cc(NC(=O)/C=C/c2cccc(Cl)c2)n(-c2nc3ccccc3[nH]2)n1,-2,-15%,10,7%,-1.4,3
Cc1nc(-c2ccc(S(=O)(=O)Nc3ccc(S(N)(=O)=O)cc3)cc2)co1,-13,?,8,3%,6.7,-12
Cc1ccc(C(=O)NCC(=O)OCC(=O)c2ccc3c(c2)OCCO3)cc1C,-2,20%,-2,-13%,-3.5,-7
CC(=O)c1ccc(N2CCN(C(=O)CCS(=O)(=O)c3ccc4c(c3)CCN4C(C)=O)CC2)cc1,4,24%,0,-2%,-0.2,0
CCCn1nnc(NC(=O)COc2ccc(C3CCCCC3)cc2)n1,-11,5%,1,?,-2.1,-9
Clc1ccc(-c2nnc(CNC3CC3)o2)cc1,.,-4%,17,1%,?,5
O=C(NCC1COc2ccccc2O1)C1CCCN(S(=O)(=O)c2cccc3cccnc23)C1 (centres undefined),-22,-35%[inhibitor],0,-17%,-3.0,-4
O=C(NCc1cccs1)C12CC3CC(CC(C3)C1)C2,8,-6%[15.4 µM],1,-1%,-5.9,-1
O=C1C(=O)N(CNc2ccccn2)c2ccccc21,-4,-31%[inhibitor],4,15%,-14,-38
O=C1OC(Cc2ccccc2)(c2ccccc2)c2ccccc21 (centres undefined),3,6%,17,.,-3.4,-5
O=C(CSCc1ccccc1)N/N=C/c1ccc(OCC(=O)N2CCCCC2)cc1,-4,1%,-1,-7%,0.5,-4
Cc1ccc(OCCCC(=O)NNC(=O)c2ccncc2)cc1,10,10%[15.4 µM],0,4%,0.7,-14
Cc1nn(CC(=O)c2ccc(Cl)s2)c(C)c1[N+](=O)[O-],-3,-1%[15.4 µM],-1,11%,-0.2,4
O=C(OCc1nc2ccccc2[nH]1)C12CC3CC(CC(C3)C1)C2,6,11%,-2,35µM*,1.5,2
CCCC(=O)c1ccc(OCc2cn(CC(=O)c3ccc(O)cc3)nn2)cc1,-1,.,-1,-4%,-7.8,-15
CCOc1ccc(C(=O)NC(=S)Nc2ccc(NC(=O)CC)cc2)cc1[N+](=O)[O-],0,-41%[inhibitor],-3,9%,-3.0,-12
CCn1c(SCC(=O)NC)nnc1C(C)C,8,0%,9,5%,-3.0,12
O=C(COc1ccc(-c2nnco2)cc1)Nc1ccc(C(F)(F)F)cc1,6,-2%[15.4 µM],1,-4%,-0.7,-6
COc1ccc(OC)c(NC(=O)Cn2cc(C=O)c3ccccc32)c1,8,-3%,-1,-19%,1.3,-10
CC(=O)c1ccc(N2CCN(c3ccc(S(=O)(=O)NCCCN(C)C)cc3[N+](=O)[O-])CC2)cc1,-13,4%,-8,-1%,-2.2,-18
CC(C)OP(=O)(OC(C)C)C(Nc1ccc(C(=O)O)cc1)c1ccccc1 (centres undefined),-2,-15%,2,-1%,-6.8,-7
CCN(CC)c1cc(NCCO)c([N+](=O)[O-])c2nonc12,-1,-20%,-10,4%,1.9,-5
Cc1ccc(S(=O)(=O)N2CCN(C(=O)C3Cc4ccccc4CN3C(=O)c3ccco3)CC2)cc1 (centres undefined),-2,-43%[inhibitor],11,0%,0.4,0
CCO[C@@H]1OC(C(=O)NCc2ccccc2)=C[C@H](C)[C@H]1CCCO,5,.,11,8%,-0.1,-2
COc1cccc(NC(=O)COC(=O)COc2cccc3c2OC(C)(C)C3)c1,8,?,-1,1%,-6.0,-10
O=C(COc1ccc([N+](=O)[O-])cc1)Nc1ccc2c(c1)CCC2,6,9%,-5,-7%,2.4,-3
Cc1c(C(=O)OC(C)C)[nH]c2c1C(=O)CCC2,8,21%,-1,6%,-0.7,10
COc1ccc(C(=O)NCCS(=O)(=O)NC(C)c2ccccc2)cc1 (centres undefined),12,-1%[15.4 µM],-7,1%,-2.1,-3
COc1ccccc1NC(=O)NC1(C(=O)N2CCCCC2)CCCCC1,0,1%,17,5%,-1.7,-3
Nc1nonc1C(=Nc1ccccc1)NO,8,?,1,14%,-3.8,-1
O=C(COC(=O)c1ccccc1Br)NCCN1C(=O)CSC1=O,4,22%[15.4 µM],0,4%,2.5,-21
CCOc1cccc(C(=O)N(Cc2cccc(F)c2)C2CCS(=O)(=O)C2)c1 (centres undefined),5,23%,3,-1%,2.1,9
COc1ccc(NC(=O)c2ccc(COc3ccccc3)o2)cc1,-1,16%,3,-8%,0.9,7
O=S(=O)(Nc1ccc(N2CCOCC2)cc1)c1cc(Cl)ccc1Cl,-14,5%[15.4 µM],-17,-4%,-4.7,1
CCOC(=O)C1CCN(S(=O)(=O)CCNC(=O)c2cccc(OC)c2)CC1,2,?,6,-9%,-4.0,-13
O=c1[nH]c(=O)c2nnc(N/N=C/c3ccccc3F)nc2[nH]1,?,7%,-19,-4%,-2.1,-9
CCOc1ccc(N(C(=O)c2cnccn2)C(C(=O)NC2CCCCC2)c2ccc(O)cc2)cc1 (centres undefined),-9,11%[15.4 µM],15,.,-4.8,-32
CCc1ccc(C(C)NC(=O)c2ccncc2)cc1 (centres undefined),14,-37%[inhibitor],2,3%,1.3,0
O=C(COc1ccc2c3c(c(=O)oc2c1)CCCC3)N1CCN(c2ccc(F)cc2)CC1,1,20%,-8,-7%,-4.4,-4
O=C(Cc1c(F)cccc1Cl)Nc1ccc(S(=O)(=O)NCC2CCCO2)cc1 (centres undefined),16,-7%,17,6%,1.5,-6
COCCSc1nnc(NC(=O)CS(=O)(=O)c2ccc(C)cc2)s1,-11,10%[15.4 µM],0,.,-3.6,-6
COc1ccc(C(=O)CSc2nnc(-c3ccco3)c(-c3ccco3)n2)cc1,?,-78%[inhibitor],?,?,-2.8,-5
O=c1c2nnn(Cc3ccccc3)c2ncn1C/C=C/c1ccccc1,1,1%,-5,-12%,1.2,0
NC(=O)C1CCN(C(=O)C2CCC(=O)N(CC3CCCCC3)C2)CC1 (centres undefined),5,7%,1,10%,0.9,-8
COc1c2c(c(OC)c3ccccc13)[C@@]1(OC2)O[C@H](CCO)C[C@H](O)[C@H]1O,1,-17%,-1,.,-1.0,0
Cc1cc2cc(CCNS(C)(=O)=O)c(=O)[nH]c2cc1C,-2,3%,-8,1%[15.4 µM],-2.8,-8
CCOCCCNC(=O)Cn1cnc2c(cnn2-c2ccc(OC)cc2)c1=O,11,38%,2,-2%,-0.9,-1
CCC(=O)N(CCC1(c2ccccc2OC)CCOC(C(C)C)C1)Cc1ccco1 (centres undefined),-9,7%[15.4 µM],-11,-20%,-1.7,-2
Cc1cccc(/C=N/NC(=O)Cc2cccs2)c1,12,-17%,7,14%,-0.6,-8
CC1=CC2=NC(=O)CC(C)(C(=O)N(CC(=O)NC3CCCC3)c3ccccc3F)N2C=C1 (centres undefined),4,22%[15.4 µM],0,12%,-4.7,-2

New compounds follow.
Structure,CtBP-E1A blk,gsp agonist,Six1-Eya2 blk,gsp antagonist,D2 agonist,D2 potentiator
C[C@]12c3[nH]c4ccccc4c3CCN1C(=O)C(CC(=O)NCCCn1ccnc1)C[C@@H]2C(=O)N1CCOCC1 (some centres undefined),0,.,-2,11%,-0.7,.
CC1CCCCN1C(=O)CN1C(=O)NC2(CCCCC2C)C1=O (centres undefined),19,1%,-9,19%,-0.2,-11
CC(=O)N=Nc1[nH]c(N)c2ccccc12,2,-60%[inhibitor],9,5%,0.8,4
Cn1c(N)c(C(=O)c2ccc(Cl)cc2)c(=O)n(C)c1=O,3,9%,3,2%,-0.1,0
COC(=O)c1c(NC(=O)C2CC=CCC2C(=O)O)sc(C(N)=O)c1C (centres undefined),-19,?,?,6%,0.7,6
O=C(NCc1cccnc1)c1ccc(-c2cc3ccccc3oc2=O)cc1,-3,?,-3,-12%,1.7,-2
CC(=O)N1CCOc2ccc(S(=O)(=O)N3CCCC(C)C3)cc21 (centres undefined),.,-20%,6,-4%,3.9,0
COc1ccc(N2C(=O)CC(C)(C)CC2=O)cc1OC,7,-13%,3,1%,-4.1,-6
CCOC(=O)C1=NN(c2ccc(OC)cc2)C2C(=O)N(c3ccccc3OC)C(=O)C12 (centres undefined),0,-4%[15.4 µM],1,-7%,-1.4,-6
O=C(Cc1ccccc1)Nc1ccc(S(=O)(=O)N2CCCC2)cc1,-2,-19%,-1,-2%,7.6,0
CCOc1ccc(C(C)C)cc1S(=O)(=O)n1ccnc1C,-1,?,3,0%,3.1,0
COc1ccc(CCNC(=O)C(=O)Nc2ccc3nc4n(c(=O)c3c2)CCCCC4)cc1OC,-3,?,-3,-11%,7.0,11
CN(C)S(=O)(=O)c1cccc(COC(=O)C2=COCCO2)c1,5,2%,-3,6%,-4.1,-25
O=C(NC1CC2CCCC(C1)N2S(=O)(=O)c1ccccc1)c1ccccc1 (centres undefined),0,13%,-1,-7%,-1.4,4
C=CCn1c(SCC(=O)Nc2ccc(C(=O)OCC)cc2)nnc1-c1sc(N)nc1C,5,3%,0,4%,-9.2,23
Cc1ccc(S(=O)(=O)n2cc(CO)c3ccccc32)cc1,3,-23%,-1,2%,-2.2,-1
COc1ccc(CC(=O)NNC(=O)c2ccccc2)cc1OC,.,?,-4,-3%,-3.2,0
O=C(NCCc1ccc(Cl)cc1Cl)c1ccc2nc[nH]c2c1,0,?,1,3%,-0.7,-6
CCN1C(=O)[C@H]2[C@@H](c3ccc(OC)cc3)N[C@]3(CCCN(Cc4ccc(C)cc4)C3=O)[C@H]2C1=O,1,-83%[inhibitor],0,.,-10.0,0
Cc1cc(NS(=O)(=O)c2ccc(NC(=O)CCSc3ccc(F)cc3)cc2)nc(C)n1,.,-8%,-7,-7%,-0.6,-3
c1nc(NCCN2CCOCC2)c2sc3nc(N4CCOCC4)c4c(c3c2n1)CCC4,9,-7%,-29,4%,-4.7,-6
Cc1noc(C)c1S(=O)(=O)N(C)C[C@H]1Oc2c(NC(=O)NC3CCCCC3)cccc2C(=O)N([C@H](C)CO)C[C@@H]1C,0,0%,-8,-12%,-1.0,-3
Cc1cc(C)n(-c2ccc(C(=O)NCC(c3ccco3)N3CCCC3)cc2)n1 (centres undefined),0,-41%[inhibitor],12,-35%,7.4,3

Sorted by heavy-atom count (falling): part of the list above.
Structure,CtBP-E1A blk,gsp agonist,Six1-Eya2 blk,gsp antagonist,D2 agonist,D2 potentiator
C[C@]12c3[nH]c4ccccc4c3CCN1C(=O)C(CC(=O)NCCCn1ccnc1)C[C@@H]2C(=O)N1CCOCC1 (some centres undefined),0,.,-2,11%,-0.7,.
CCN1C(=O)[C@H]2[C@@H](c3ccc(OC)cc3)N[C@]3(CCCN(Cc4ccc(C)cc4)C3=O)[C@H]2C1=O,1,-83%[inhibitor],0,.,-10.0,0
Cn1c(N)c(C(=O)c2ccc(Cl)cc2)c(=O)n(C)c1=O,3,9%,3,2%,-0.1,0
